RecA splice inh = Mtb RecA intein splicing inhibitors, primary screen, biochemical, fluorescence, HTS; Protein RecA (Mycobacterium tuberculosis (strain ATCC 25618 / H37Rv)), P9WHJ3; cell-free RecA intein splicing; AID 2221, 2009; inhibition, %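 (about 9 µM by stock and volumes)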; 290,000 tested, 0.75% active; in the data active = inhibition above about 30%; inconclusive = no clear call, values can overlap the other calls;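 also: 0% = vehicle wells and 100% = reference inhibitor control wells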
Target sequence (P9WHJ3 whole entry, looked up, canonical isoform): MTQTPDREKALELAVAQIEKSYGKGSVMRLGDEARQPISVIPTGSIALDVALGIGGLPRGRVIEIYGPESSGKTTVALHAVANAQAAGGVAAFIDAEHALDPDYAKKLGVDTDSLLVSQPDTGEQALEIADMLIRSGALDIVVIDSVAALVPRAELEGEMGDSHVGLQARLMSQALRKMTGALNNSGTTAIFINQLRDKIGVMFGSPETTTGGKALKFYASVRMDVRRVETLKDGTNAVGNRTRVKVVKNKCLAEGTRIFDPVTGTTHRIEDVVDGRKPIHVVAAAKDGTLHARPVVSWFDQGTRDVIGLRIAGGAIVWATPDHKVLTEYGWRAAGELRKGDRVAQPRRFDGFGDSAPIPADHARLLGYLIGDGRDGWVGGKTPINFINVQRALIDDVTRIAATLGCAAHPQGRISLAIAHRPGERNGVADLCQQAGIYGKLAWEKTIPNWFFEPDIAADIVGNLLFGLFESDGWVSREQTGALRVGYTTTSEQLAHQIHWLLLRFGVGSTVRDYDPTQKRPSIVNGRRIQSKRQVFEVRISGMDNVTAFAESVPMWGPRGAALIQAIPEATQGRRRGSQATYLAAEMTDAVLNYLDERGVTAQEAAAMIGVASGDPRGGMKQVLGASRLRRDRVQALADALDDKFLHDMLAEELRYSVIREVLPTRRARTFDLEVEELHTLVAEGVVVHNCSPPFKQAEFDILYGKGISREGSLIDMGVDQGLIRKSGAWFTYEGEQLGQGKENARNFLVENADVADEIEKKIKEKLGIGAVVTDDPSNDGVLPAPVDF
YopH PTP inh = YopH tyrosine phosphatase inhibitors, primary screen, biochemical, fluorescence Ex485/Em525 | YopH tyrosine phosphatase [Yersinia enterocolitica] | inhibition, %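 (about 10 µM by stock and volumes)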 | 140,000 tested, 0.16% active;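 active = inhibition of 50% or more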;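 also: controls were vehicle for no effect and minimum signal wells for full effect; inactives centre near -20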
Mtb H37Rv = M. tuberculosis H37Rv growth inhibitors, H37Rv strain (AID 1626). 220,000 tested, 0.95% active. one-dose inhibition, % at 10 µM; IC50 in µM for titrated hits. M. tuberculosis H37Rv growth inhibition; higher % means a stronger effect;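 active = confirmed in a dose series; inconclusive = inhibition above 80% but not taken into the dose series; inactive = below 80% or under 30% at every dose of the series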;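 also: bacteria incubated seven days before Alamar blue readout; 0% = bacteria only wells and 100% = bacteria with antibiotic wells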
Mtb betalactam = beta-lactam sensitization of Mtb H37Rv, H37Rv; AID 434955, 2010; inhibition, % at 25 µM; 330,000 tested, 0.27% active; M. tuberculosis H37Rv growth with meropenem, percent inhibition; hits of this screen are not shown here;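 active = about 74% or more and at least 40 points above the plate without the antibiotic, then above 30% in a dose series; inconclusive = first-round hits that could not be retested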;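 also: growth measured after seven days incubation then overnight dye step; 0% = bacteria only wells and 100% = bacteria with antibiotic; twin plates without the antibiotic show which effects depend on it; some results filed as inactive read as strong as hits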
Arbovirus inh = antivirals against arbovirus infection, primary screen, cell-based, full library, 10K replicate subset; inhibition, % at 10 µM; 200,000 tested, 0.37% active; arbovirus infection cell-based antiviral screen;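 active = inhibition from about 30%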;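 also: bluetongue infection of BSR cells; cell survival read as ATP light after 72 h; 0% = infected wells without compound and 100% = uninfected wells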
Arbovirus inh repeat = also measured in Arbovirus inh; calls as there; inhibition, %; measured here: 10K subset replicate screen; many hits read low in the repeat;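 first of two repeat runs on a subset; 0% = infected and 100% = uninfected wells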
Active calls of the source: *; ? = inconclusive; . = no result given. Some of the compounds tested; rates above refer to the full screens.

SMILES	RecA splice inh	YopH PTP inh	Mtb H37Rv	Mtb betalactam	Arbovirus inh	others
Cn1c(Cc2csc(N)n2)nnc1SC/C=C/c1ccccc1	-0.5	-27	-8%	0	-6
CCN(CC)S(=O)(=O)c1ccc(Nc2cc(C)nc3ncnn23)cc1	-0.2	-38	-1%	-10	-1
CCOc1ccc(NS(=O)(=O)c2ccc3ncsc3c2)cc1	2.2	.	7%	-4	-5
Nc1cccc2c3c(oc12)CCCC3	0.9	.	.	67	.
O=C(N/N=C/c1cc2cc3c(cc2nc1Cl)OCO3)c1ccncc1	-3.1	.	?	99	.
Cc1ccccc1NC(=O)CSc1nc(-c2ccccc2)cc(=O)[nH]1	-0.2	.	.	3	.
N#Cc1ccc(CSc2nnc(NC(=O)c3ccc(=O)[nH]c3)s2)cc1	-3.8	.	3%	5	.
CCOC(=O)c1c(NC(=O)CN2CCN(C(=O)C3CCCO3)CC2)sc(C)c1C (stereo unspecified)	-1.7	.	.	2	.
Cc1ccc(N=C2CSC(=O)N2)cc1	-2.7	.	-2%	8	17
Clc1ccccc1CSc1nc2ccncc2[nH]1	0.0	-15	.	-1	8
CCCCNC(=O)C1CCCN1C(=O)Nc1cccc(OC)c1 (stereo unspecified)	1.4	6	-1%	?	1
Cc1cccc(NC(=O)C(C)SCc2nc3sc(C)c(C)c3c(=O)[nH]2)n1 (stereo unspecified)	-0.2	.	.	?	.
C/C(=N\Nc1ccc(S(N)(=O)=O)cc1[N+](=O)[O-])c1ccco1	0.2	.	2%	-2	.
CCOC(=O)c1cnn(-c2nc3c(C)cccc3s2)c1C	1.6	-21	-8%	2	1
O=C(NNC(=O)c1cnccc1C(F)(F)F)c1ccccc1	5.4	.	1%	1	.
Cc1ccc(NC2=NCC(=O)N2CCc2ccccc2)cc1C	2.3	-21	4%	-3	-3
CN(C)c1ccc2c(O)cc(=O)n(C)c2c1	-8.8	-10	1%	-5	3
CCOc1ncccc1C(=O)OCC(=O)NC(=O)NC(C)C	-0.5	.	4%	1	2
O=C(N/N=C/c1ccccc1)c1ccc(N2CCOCC2)c([N+](=O)[O-])c1	2.0	-21	-1%	6	0
CC1CC(C)CN(C(=O)COC(=O)c2cccc([N+](=O)[O-])c2)C1 (stereo unspecified)	-1.5	.	-4%	24	-2
COCCNC(=O)c1cc2sccc2n1C	1.5	.	-6%	-2	-6
COc1ccc(NC(=O)CN2CCN(c3ccccc3F)CC2)cc1	-2.8	-10	1%	-9	-5
COC(=O)c1c(NC(C)=O)sc2c1CCN(Cc1ccccc1)C2	-1.5	.	.	-4	.
COc1ccc(CCNC(=O)NC(C(F)(F)F)C(F)(F)F)cc1OC	4.1	-24	-4%	-9	3
CCOc1ccc(NC(=O)COC(=O)COc2cccc3c2OC(C)(C)C3)cc1	-0.5	.	.	56	.

New compounds follow:
SMILES	RecA splice inh	YopH PTP inh	Mtb H37Rv	Mtb betalactam	Arbovirus inh	others
COc1ccc(N=C2NC(=O)/C(=C\C=C\c3ccccc3)S2)cc1	0.2	.	-4%	-8	-14
Cc1cccc(C(=O)NCC(c2ccco2)N(C)C)c1 (stereo unspecified)	-1.3	.	5%	-10	-10
COc1ccc(S(=O)(=O)N2CCN(c3ccc4nnc(-c5ccc(F)cc5)n4n3)CC2)cc1	1.3	-9	14%	0	23	Arbovirus inh repeat=2
O=C(Nc1ccc([N+](=O)[O-])cc1)C1C(c2ccccc2)=C1c1ccccc1	-1.5	3	28%	-3	2
COc1ccc(N2CCN(Cc3nc(-c4ccccc4)no3)CC2)cc1	-1.4	.	0%	-10	12
O=c1c([N+](=O)[O-])cc(C(F)(F)F)cn1Cc1c(Cl)cccc1Cl	0.0	-38	.	33	1
CC(C)c1ccc(NC(=O)c2ccccc2NC(=O)C2CC=CCC2C(=O)O)cc1 (stereo unspecified)	-0.6	.	.	0	.
CN(C)c1nnc(-c2ccc(Cl)cc2)o1	0.8	.	-5%	-4	21
Cn1nc(CC(=O)N2CCN(c3ccccc3)CC2)c2ccccc2c1=O	0.3	1	-1%	2	8
O=C(COC(=O)COc1ccc(Cl)cc1Cl)Nc1cccnc1Cl	2.0	-9	2%	-4	0
CCOC(=O)c1c(S(=O)(=O)NCC(=O)NCc2ccccc2Cl)c(C)n(C)c1C	2.9	.	.	-1	.
O=C(O)CCC(=O)N1N=C(c2cccs2)CC1c1ccc(Br)cc1 (stereo unspecified)	2.0	.	.	-3	.
Cc1sc(NC(=O)CSc2nc(N)n(CC(=O)c3ccccc3)n2)c(C#N)c1C	1.2	-2	0%	5	7
CC(C)NC(=O)c1cc(C(=O)c2cc(Cl)ccc2O)coc1=N	-1.9	-28	5%	-8	8
COc1ccc(CNC(=O)CN2CCC(NC(=O)c3ccccc3C)CC2)cc1	-1.0	.	.	0	.
O=C(NCCc1ccncc1)c1ccc2nc(Cc3cccc(Cl)c3)oc2c1	-4.5	.	.	44	.
Cn1c(=O)c2ncn(CC(=O)Nc3cccc(-c4nc5ccccc5s4)c3)c2n(C)c1=O	.	-43	11%	6	-12
C=CCCC(=O)Nc1nc(C)c(-c2csc(Nc3ccc(Cl)cc3)n2)s1	17	16	?	0	-33
CCCSc1cc(=O)n(-c2ccccc2)nc1C(=O)O	-1.0	.	-2%	0	3
CC1CCCN(CCCNC(=O)c2ccc(CS(=O)(=O)c3c(Cl)cccc3Cl)o2)C1 (stereo unspecified)	0.1	.	.	-10	.
Cc1ccc(Nc2c(-c3ccc(N4CCOCC4)cc3)nc3ncccn23)cc1	-6.6	-18	.	9	-7
COC(=O)C1=C(C)Nc2nnnn2C1c1cc(OC)ccc1OC (stereo unspecified)	0.2	-49	-11%	-2	7
CC1CN(c2nc3c(c(=O)n(Cc4ccc(Cl)cc4)c(=O)n3C)n2C)CC(C)O1 (stereo unspecified)	.	-41	4%	6	-2
C/C(=N\NC(=O)c1ccccc1)c1ccc(N2CCCCC2)cc1	-1.4	-23	7%	-1	5
COc1cc(NC(=O)c2n[nH]c(=O)c3ccccc23)cc(OC)c1	2.7	.	-1%	-5	.

Sorted by SMILES length (descending): seven of the compounds above
SMILES	RecA splice inh	YopH PTP inh	Mtb H37Rv	Mtb betalactam	Arbovirus inh	others
Cn1c(=O)c2ncn(CC(=O)Nc3cccc(-c4nc5ccccc5s4)c3)c2n(C)c1=O	.	-43	11%	6	-12
CCOC(=O)c1c(S(=O)(=O)NCC(=O)NCc2ccccc2Cl)c(C)n(C)c1C	2.9	.	.	-1	.
O=c1c([N+](=O)[O-])cc(C(F)(F)F)cn1Cc1c(Cl)cccc1Cl	0.0	-38	.	33	1
O=C(NCCc1ccncc1)c1ccc2nc(Cc3cccc(Cl)c3)oc2c1	-4.5	.	.	44	.
COc1cc(NC(=O)c2n[nH]c(=O)c3ccccc23)cc(OC)c1	2.7	.	-1%	-5	.
COc1ccc(N2CCN(Cc3nc(-c4ccccc4)no3)CC2)cc1	-1.4	.	0%	-10	12
O=C(COC(=O)COc1ccc(Cl)cc1Cl)Nc1cccnc1Cl	2.0	-9	2%	-4	0

Carrying on:
SMILES	RecA splice inh	YopH PTP inh	Mtb H37Rv	Mtb betalactam	Arbovirus inh	others
Cc1ccc(/C(=N/Nc2ncnc3ccccc23)C(=O)O)cc1	-3.9	.	.	0	.
O=C(c1ccccc1)N1CCN(S(=O)(=O)N2CCOCC2)CC1	-2.3	.	4%	-6	2
Cn1c(CNC(=O)c2ccc3c(c2)OCO3)nnc1SCC(=O)Nc1ccccc1F	-2.5	.	.	2	.
Cc1cccc(C)c1NC(=O)CCCSc1nnc(N)s1	-0.2	.	1%	1	2
COc1ccc(Cn2cnc3c4cc(F)ccc4n(C)c3c2=O)cc1	-1.5	.	-5%	-2	.
Cc1cc(NC(=O)CCC(=O)N(CC(=O)NC2CCCC2)Cc2ccccc2Cl)no1	.	-35	0%	-8	-3
CC(C)OP(=O)(OC(C)C)C(Nc1cccc(C(=O)O)c1)c1ccccc1 (stereo unspecified)	0.1	.	-8%	-1	.
O=C(Nc1ccc(N2CCOCC2)cc1)c1cnccn1	0.4	.	.	-3	.
CC(=O)N(C(C)=O)C1=C(C#N)C2(CCCCC2)Cc2ccccc21	2.8	3	-3%	-5	-1
O=C(Nc1cccc(C(F)(F)F)c1)c1cc(S(=O)(=O)N2CCCCC2)ccc1N1CCOCC1	7.0	-29	-4%	-2	3
O=C(NC(=S)NCc1ccco1)c1ccccc1	1.9	.	10%	5	-6
CC(=O)Nc1ccc(-c2csc(Nc3ccc(Cl)cn3)n2)cc1	-2.9	.	8%	8	2
COc1cc(N/C=C(\C(C)=O)c2ccccc2)cc(OC)c1	.	-8	6%	45	-4
CCOC(=O)C(Sc1nn(C)c(=S)s1)C(C)=O (stereo unspecified)	-0.5	-21	-9%	-2	7
CCCn1nnc(NC(=O)c2cccc(OCC)c2)n1	-0.6	-24	-6%	0	0
CCOC(=O)Cc1c(C)nc2cc(-c3ccc(C)cc3)[nH]n2c1=O	-0.6	-37	-4%	-8	0
Cc1cccnc1NC(=O)c1ccc(Cl)c(S(=O)(=O)N2CCCC2)c1	-0.6	.	.	-6	.
Cc1ccc(S(=O)(=O)N2CCN(C(=O)/C=C/c3ccco3)CC2)cc1	-3.8	-13	-4%	-4	5
Fc1ccccc1CNCCc1ccc2c(c1)OCO2	-2.2	.	.	-5	.
COc1ccc(/C=N/n2c(-c3cc(C)[nH]n3)n[nH]c2=S)cc1	.	.	3%	-4	.
O=C1CC(N2CCC(c3nc4ccccc4s3)CC2)C(=O)N1 (stereo unspecified)	-1.7	-28	-3%	2	6
CCCc1c(C(=O)N/N=C/C(C)=C/c2ccccc2)nnn1-c1nonc1N	0.0	.	.	0	.
Cc1ccc(C(=O)NC(=S)NCC2CCCO2)cc1 (stereo unspecified)	2.6	-13	0%	8	4
Cc1ccc(Oc2cc([N+](=O)[O-])cc3c2C(=O)Nc2ccccc2O3)cc1	1.0	18	11%	-3	-6
O=C(O)c1n[nH]c2ccccc12	-4.4	10	0%	-6	8	Arbovirus inh repeat=4

Following part
SMILES	RecA splice inh	YopH PTP inh	Mtb H37Rv	Mtb betalactam	Arbovirus inh	others
COc1ccc(/C=C(/C#N)C(=O)Nc2ccc(C)cc2C)cc1C(=O)O	0.2	-19	-6%	-4	2
CCc1c(C)nc2cc(-c3ccc(OC)c(OC)c3)nn2c1NCC1CC1	3.5	-16	.	98	-26
COC(=O)c1ccc2c(=O)n(CCCN3CCOCC3)c(=S)[nH]c2c1	0.4	6	1%	2	21
CCN(c1cccc(C)c1)S(=O)(=O)c1ccc2c(c1)CCCN2C(C)=O	3.6	.	.	-11	.
O=[N+]([O-])c1ccc(N2CCOCC2)c(S(=O)(=O)N2CCOCC2)c1	0.9	.	9%	5	-7
CN1C(=O)C(C)(C)c2cc(S(=O)(=O)NCC3CCC(C(=O)NCc4ccccc4)CC3)ccc21 (stereo unspecified)	0.9	.	.	-6	.
O=C(NCC1CCCO1)C1CCN(S(=O)(=O)c2cccc3cccnc23)CC1 (stereo unspecified)	.	-31	3%	-3	3	Arbovirus inh repeat=4
CCO[C@H]1OC(C(=O)NCc2ccccc2)=C[C@@H](C2CCCCC2)[C@@H]1CCCO	4.0	.	-2%	1	-18
COc1ccc(COC(=O)c2cccc(S(=O)(=O)N3CCN(C(C)=O)CC3)c2)cc1	-3.7	.	.	-4	.
S=c1[nH]nc(CCc2ccccc2)n1Cc1ccccc1	-2.2	-50	2%	-8	3
CCOc1ccc(Oc2ccccc2NC(=O)C2=COCCO2)cc1	7.2	.	.	-8	.
CCC(=O)OCC(=O)Nc1cc([N+](=O)[O-])ccc1OC	-2.8	.	11%	10	0
O=C(NC(=S)Nc1ccc(S(=O)(=O)N2CCCCC2)cc1)c1ccccc1	2.0	4	-6%	-5	-6
Cc1cccc2c(C(=O)Nc3ccc(Br)cc3)cc(-c3ccccn3)nc12	-0.6	.	0%	1	-7
COc1ccc(S(=O)(=O)Nc2ccc(N3CCOCC3)cc2)cc1	-4.4	.	.	-6	.
CCOC(=O)c1cccc(-c2ccc(C=O)o2)c1	1.5	-13	7%	22	-5
O=C(Cn1nnc2ccccc21)Nc1ccc(Cl)cn1	1.1	.	2%	4	8
CC(C)(C)Nc1nc(Oc2ccc(=O)n(-c3ccccc3)n2)nc(N2CCOCC2)n1	-0.7	-33	-8%	2	0
NC(=O)C1CCN(CC(=O)NC2CCCc3ccccc32)CC1 (stereo unspecified)	11	.	-1%	1	4
CN(CC(=O)Nc1ccc(F)cc1)C(=O)COC(=O)c1ccc(-c2ccccc2)cc1	-0.7	.	.	-6	.
